ClpP mod – qHTS Assay for Activators of ClpP. ATP-dependent Clp protease proteolytic subunit (Bacillus subtilis (strain 168)), P80244. purified B. subtilis ClpP, FRET peptide cleavage, 20 min. Potency, µM (titrated, usually from 57.5 µM), without a hit: at the top dose activity change, negative = active. actives 1.9% (n = 340,000). AID 651965, 2013; active = well fitted falling curve with a large enough effect; inconclusive = small, poorly fitted or top-dose-only effect; inactive = no such curve, though single readings can be large or run the other way; also: potency is read from the fitted curve at half-maximal effect; the source files actives as falling curves though it sought activators and does not explain the sign; nearly all actives have a fitted effect of over 65% in size; many hits overshoot -100%
Target sequence (P80244 whole entry, looked up): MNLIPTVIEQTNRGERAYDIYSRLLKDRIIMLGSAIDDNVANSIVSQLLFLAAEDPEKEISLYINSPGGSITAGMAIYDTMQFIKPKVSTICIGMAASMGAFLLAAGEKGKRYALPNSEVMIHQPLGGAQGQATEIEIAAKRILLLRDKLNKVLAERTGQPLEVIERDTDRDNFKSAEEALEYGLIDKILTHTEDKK
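Purified B. subtilis ClpP, 10 microg/mL final in Tris/HCl pH8 with KCl, BSA, glycerol and Tween-20, cleaved an Abz/nitrotyrosine-quenched decapeptide. Fluorescence (ex 320, em 430) was read at 0 and 20 min at room temperature. Delta was normalized to 5.8 microM ADEP and DMSO/no-enzyme controls.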
TRPML1 inh – human mucolipin-1 channel inhibition | Q9GZU1 | TRPML1-inducible cells, Ca2+ dye fluorescence, FDSS; active compounds read low; inhibition of EC80 agonist-evoked calcium signal | activity change, negative = inhibition, % (no concentration beside the values) | actives 0.02% (n = 390,000); in the data active means activity change below about -50%; inconclusive means about -30% to -50%; inactive means above about -30%;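 also: stimulus is agonist 54-4 at its EC80 concentration; % is scaled to controls: 0 for no effect and ±100 for the full control effect; compound concentration not given in the record; the text of the record puts the active cut at -80%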
Target sequence (Q9GZU1 whole entry, looked up): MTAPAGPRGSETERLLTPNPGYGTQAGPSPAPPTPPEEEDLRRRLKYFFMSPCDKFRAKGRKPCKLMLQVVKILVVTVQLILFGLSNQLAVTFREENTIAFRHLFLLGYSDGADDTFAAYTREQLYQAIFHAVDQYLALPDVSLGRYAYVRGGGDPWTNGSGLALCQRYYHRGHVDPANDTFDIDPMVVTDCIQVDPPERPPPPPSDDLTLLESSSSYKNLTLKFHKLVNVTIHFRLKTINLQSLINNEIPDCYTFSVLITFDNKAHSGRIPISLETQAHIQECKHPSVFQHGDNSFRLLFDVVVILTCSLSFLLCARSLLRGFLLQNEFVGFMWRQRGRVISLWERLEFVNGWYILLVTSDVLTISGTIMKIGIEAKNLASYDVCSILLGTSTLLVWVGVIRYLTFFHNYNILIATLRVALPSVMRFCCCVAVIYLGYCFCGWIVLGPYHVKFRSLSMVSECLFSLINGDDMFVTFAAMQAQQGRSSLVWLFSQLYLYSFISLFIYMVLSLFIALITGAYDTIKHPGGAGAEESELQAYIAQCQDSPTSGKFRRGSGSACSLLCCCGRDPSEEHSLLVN
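TRPML1-DL cells, Tet-induced overnight (~16 h, 37 °C) at 1,500 cells/well, were loaded with Ca8 no-wash dye plus quencher for 45-90 min at room temperature. Compounds were pinned during FDSS kinetic reading; agonist 54-4 at EC80 (4 uM final) then added.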
gsp antagonist – antagonizes gsp, the McCune-Albright syndrome mutation; gsp-mutant cells, cAMP HTRF, 30 min; control for the full effect not named in the record; Potency, µM (doses to about 76.9 µM), inactives show at the highest dose activity change, negative = inhibition, actives largely listed as inhibitors; actives 0.4% (n = 340,000); AID 624288; active = falling curve of any shape with a large fitted effect; inconclusive = falling curve, mostly with a smaller effect; inactive = flat or rising curve; cell line not stated here;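 also: intracellular cAMP measured with PDE inhibitor Ro 20-1724 present during compound exposure; potency is read from the fitted curve at half-maximal effect; % is scaled to controls: 0 for no effect and ±100 for the full control effect; nearly all actives have a fitted effect of over 65% in size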
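G418-selected cells were plated in DMEM/10% FBS for 16-24 h at 37C, then treated with compounds plus the PDE inhibitor […] (300 uM solution added) for 30 min at 37C. Intracellular cAMP was measured by HTRF after 30 min lysis at room temperature.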
gsp agonist – agonists of gsp mutant (McCune-Albright syndrome); gsp mutant cells, cAMP HTRF, 30 min; control for the full effect not named in the record; Potency, µM (doses to about 76.9 µM), for the others: at the highest dose activation (cAMP increase), most hits filed as activators; actives 0.13% (n = 340,000); active = well fitted activation curve with a large enough effect; inconclusive = small, poorly fitted or top-dose-only effect, or another doubt; inactive = no such curve, though single readings can be large or run the other way; cell line not stated here;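 also: phosphodiesterase inhibitor Ro 20-1724 added with compounds to block cAMP breakdown; potency is read from the fitted curve at half-maximal effect; nearly all actives have a fitted effect of over 60% in size; about a fifth of the inactives were tested at one dose only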
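Cells stably selected in G418 were plated at 2000/well, grown 16-24 hr, then given compounds in DMSO with the PDE inhibitor […] (300 uM solution added) for 30 min at 37C; cAMP was read by HTRF.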
Menin MLL FP FL – inhibitors of human menin-MLL interaction, wild-type MLL peptide | 290,000 tested, under 10 active | Fluorescence polarization, fluorescein-MLL peptide displacement from menin | FP activity change, % at 61.4 µM; inconclusive = falling polarisation curve, or a change in total fluorescence; inactive = total fluorescence flat and polarisation flat or rising; no compound was filed as active; the % refers to the polarisation; negative = inhibition;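 also: % of control where 0% means no effect; inhibitors lower the polarisation; unlabelled MLL peptide was the positive control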
TRPML1 agonist – agonists of human TRPML1 channel. Q9GZU1. TRPML1-expressing cells, Ca2+ dye fluorescence, FDSS; host cell line not named in the record; reference of the full effect not given here. activation, % (concentration not given with the values). actives 0.12% (n = 410,000); in the data active = activation above about 50%; inconclusive = about 30% to 50%; inactive = below about 30%; also: 0% is about no effect; the text of the record puts the active cut at 80%
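In this qHTS format, compounds were pin-transferred onto Ca8-dye-loaded TRPML1-DL cells induced with Tet overnight, and intracellular Ca2+ fluorescence was recorded kinetically for 110 s after a 10 s baseline. A subsequent 4uM final 54-4 (EC80) addition followed by a second 110 s read served as the antagonist phase.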
* hit, by the source's call; u = inconclusive; x = no result given; & = joins results of further samples; [ ] = remark or other dose.

SMILES | ClpP mod | TRPML1 inh | gsp antagonist | gsp agonist | Menin MLL FP FL | TRPML1 agonist
CC(C)CC(NC(=O)OC(C)(C)C)C(=O)NC(C(=O)NC(C)C(N)=O)C(C)C (stereo not drawn) | 0.3% | -1.7 | 5.3% | -1.8% | 0.0 | -0.2
CCc1ccc(Oc2nc3c(C)cccn3c(=O)c2/C=C(\C#N)c2nc3ccccc3s2)cc1 | -16.1% | -0.4 | x | x | x | -0.2
CCC(=O)N1CCN(c2ccc(Cl)cc2NC(=O)c2ccc(N3CCCC3)c([N+](=O)[O-])c2)CC1 | 0.7% | 51.8 | -17.0% | 1.3% | 3.5 | 0.2
COc1cc(NC(=O)c2cccc(Cl)c2)c(OC)cc1NC(=O)CN1CCCCC1 | x | 1.1 | -5.9% | -13.7%[15.4 µM] | -0.7 | 17.4
COc1cc(/C=N\NC(=O)C2CC3C=CC2C3)ccc1O (stereo not drawn) | -24.7% | -10.6 | 8.6% | -23.3% | x | -0.3
CCOC(=O)c1c(C)[nH]c(NC(=O)Nc2ccc(NC(C)=O)cc2)c1C | 2.1% | x | 4.1% | 7.1% | 3.7 | x
C[C@H]1COC(=O)[C@@H](Cc2ccc(F)cc2)CC/C=C\C[C@H](CC(=O)NCCO)C(=O)N1 | 0.3% | -17.6 | 8.4% | 0.7% | x | -0.4
COc1ccccc1C(=O)NCC(=O)N/N=C/c1ccncc1 | x | 6.4 | 6.2% | -2.5%[15.4 µM] | 0.0 | -0.6
CCCCN(CC)CCCNC(=O)c1cc2c(=O)[nH]c3ccccc3c2s1 | 0.9%&4.3% | -4.6&-26.4 | 14.8% | 2.0%[15.4 µM] | 11.0 | -0.3&0.7
Cc1occc1-c1nnc(SCC(=O)NCCc2ccccc2)n1C(C)c1ccccc1 (stereo not drawn) | 0.7% | -2.6 | -5.3% | -5.1% | -0.1 | 6.0
O=C(NCCOC(=O)c1ccc(S(=O)(=O)N2CCOCC2)cc1)c1cccnc1 | 1.1% | -2.1 | 4.7% | 28.2µM* | -0.5 | -0.1
COc1ccc(CN2CCC(n3nccc3NC(=O)C3CCCC3)CC2)c(OC)c1 | -13.2% | 40.1 | 6.4% | 8.5% | 5.3 | -0.3
Cc1nc(CS(=O)(=O)c2ccc(Cl)cc2)sc1C(=O)O | x | -2.3 | -7.8% | -2.3%[15.4 µM] | 0.9 | 2.2
COc1ccc(Cl)cc1NC(=O)Cn1cc(C(=O)c2ccc(C)cc2)c(=O)c2ccc(C)nc21 | -0.5% | -4.1 | x | x | x | 0.1
O=C(NCCS(=O)(=O)N1CCCCC1)c1ccccc1 | -2.3% | -6.9 | 10.3% | -14.0%[15.4 µM] | x | 0.0
COCCN(C(=O)COC(=O)CCc1ccccc1)c1c(N)n(Cc2ccccc2)c(=O)[nH]c1=O | 203.6% | 7.7 | 4.1% | -7.2% | x | -0.2
Cc1nc(-c2cccc(S(=O)(=O)N3CCC(C(=O)NCc4ccccc4)CC3)c2)no1 | -1.0% | 2.7 | x | x | x | -0.3
N#CCCn1cc(C(=O)Nc2ccc(C(=O)O)cc2)c(-c2cccs2)n1 | -0.7% | -3.1 | 5.7% | -8.4% | -0.7 | 0.2
COc1cc(OC)cc(C(=O)N[C@H](C(=O)Nc2ccccc2N2CCOCC2)C(C)C)c1 | 0.3% | -2.8 | 11.8% | 9.5% | 4.7 | 1.1
COc1ccc(-c2nc3ccccc3s2)cc1NC(=O)c1ccc(F)cc1 | 88.6% | 10.6 | x | x | x | 2.3
CN(C(=S)NC(=O)C1CCCC1)c1ccccc1 | -1.3% | -2.2 | x | -118.1%[inhibitor] | x | -0.3
COc1cc(C2CC(=O)NC3=C2C(=O)CC(C)(C)C3)ccc1O (stereo not drawn) | 3.0% | -17.2 | 4.8% | 18.8% | -0.7 | -0.2
Cc1cc(C)n(C(=O)Cn2nc([N+](=O)[O-])c(Br)c2C)n1 | 0.3% | -15.5 | 2.3% | -3.1% | -4.5 | 0.0
O=C(CCC(=O)N1CCOc2ccc(Cl)cc21)NCCCN1CCN(c2ccccc2F)CC1 | 0.0% | 1.2 | 8.0% | 0.9% | -0.2 | 1.0
Cc1onc(-c2ccccc2Cl)c1C(=O)Nc1cccc(S(=O)(=O)NC2=NCCC2)c1 | x | -21.8 | -6.1% | 7.9%[15.4 µM] | x | 1.0
O=C(CN1C(=O)CSc2ccccc21)Nc1ccc2c(c1)OCCO2 | -0.8% | -8.9 | 0.8% | 3.1% | 2.7 | -0.2
O=C(NCCCNCc1ccccc1)/C(=N\O)c1ccccc1 | -7.5% | 3.4 | -2.0% | 3.8% | 4.4 | 0.5
O=C(c1cc(-c2ccc(Cl)cc2)nc2ccccc12)N1CCOCC1 | -15.5% | 2.3 | 4.3% | 13.9% | x | 0.0
c1ccc(-c2n[nH]c(-c3ccccc3)c2-c2nc3ccccc3[nH]2)cc1 | -24.1% | 20.9 | -5.0% | -27.1% | 6.4 | -0.4
COc1cccc(C2c3c(-c4ccccc4O)n[nH]c3C(=O)N2Cc2ccco2)c1 (stereo not drawn) | -0.9% | -4.3 | -14.4% | -12.9% | -2.2 | 2.7
C=CCNC1=C(Cl)C(=O)N(c2ccccc2Cl)C1=O | 0.3% | 0.8 | 0.4% | -19.2% | 1.1 | 0.0
COc1ccc(CCNC(=S)NCc2ccc(Cl)c(Cl)c2)cc1OC | x | 17.1 | -20.2% | 11.9%[15.4 µM] | 0.0 | 1.1
Cn1c(NNC(=O)c2cccc3ccccc23)cc(=O)n(C)c1=O | -3.1% | 0.9 | 2.0% | 1.2% | 6.4 | 0.3
C=CCC(=O)NC(C)c1cnn(-c2ccccc2C)c1C (stereo not drawn) | 1.5% | -24.6 | 7.5% | -18.7% | 0.7 | -0.6
CCn1c(CCNC(=O)c2cccs2)nnc1SCC(=O)Nc1ccc(Cl)cc1 | -3.3% | -17.7 | -3.2% | -43.6%[inhibitor] | -1.7 | -0.3
O=C(NCc1nc2ccccc2[nH]1)c1ccco1 | 0.1% | 27.7 | -1.2% | -0.6% | 4.8 | 0.8
Cc1ccc(NC2c3ncccc3C(=O)N2Cc2cccs2)cc1C (stereo not drawn) | -0.7% | 13.7 | -3.3% | u | -2.0 | 0.6
CC(=O)Nc1cccc(-c2csc(Nc3cc(C)ccn3)n2)c1 | -2.7% | 17.1 | -26.3% | 0.6% | 0.6 | 0.7
COc1ccc(C2C=C(c3ccccc3)Nc3nc(NC(=O)c4cccc([N+](=O)[O-])c4)nn32)cc1 (stereo not drawn) | -3.9% | 24.0 | x | x | x | 0.0
COCC(O)CNc1ccccc1 (stereo not drawn) | -3.6% | u | 15.8% | 7.6% | 0.8 | 1.6
COc1ccccc1CNc1nc(=S)[nH]c2cc(OC)c(OC)cc12 | -4.0% | 7.7 | 4.0% | 19.5% | 4.2 | 0.5
COCCNC(=O)C1CC(c2ccccc2C(F)(F)F)=NO1 (stereo not drawn) | 1.4% | 14.0 | 15.2% | u | x | 0.6
O=C(OC(C(=O)NC1CCCCC1)c1ccccc1F)c1ccco1 (stereo not drawn) | x | 2.4 | 2.5% | -15.7%[15.4 µM] | 0.6 | -0.7
CC(C)C(=NO)c1ccccc1 | -0.7% | 6.6 | 0.9% | 13.7%[15.4 µM] | x | 0.0
CCCSCCCNC(=O)C1CCCN(c2nn3cc(-c4ccc(OC)cc4)nc3s2)C1 (stereo not drawn) | -1.7% | -7.3 | x | x | x | 2.1
CCOC(=O)c1ccc(NC(=O)C2CCN(C(=O)N3CC(C)Oc4ccc(C)cc43)CC2)cc1 (stereo not drawn) | -1.4% | 22.4 | x | x | x | -0.6
Cc1noc2ncc(C(=O)c3cc(F)ccc3O)cc12 | u | -0.3 | 7.1% | u | 2.5 | -0.4
CCOc1cc(/C=C2/C(=O)N(c3ccccc3)N=C2C)ccc1OC(=O)c1ccco1 | -2.2% | -7.4 | -9.9% | -43.0% | -0.7 | 0.4
CN(C)S(=O)(=O)c1cccc(C(=O)Nc2ccc(S(=O)(=O)N3CCCC3)cc2)c1 | 2.1% | -14.6 | 1.4% | -3.2% | 0.5 | 3.6
CCc1nnc(NC(=O)C(C)Sc2ccccc2)s1 (stereo not drawn) | -0.8% | 15.5 | 9.9% | u | 1.3 | 1.0
CNS(=O)(=O)c1cccc(C(=O)OCC(=O)Nc2nc(OC)cc(OC)n2)c1 | -0.1% | -2.8 | 6.3% | 5.1% | x | 1.2
O=C(O)CSc1nnc(-c2ccncc2)n1-c1ccc(Cl)cc1 | -7.0% | -0.9 | -2.5% | 14.8% | 2.7 | -0.3
Cc1ccc2nc(SCC(=O)N3CCCCC3)nc(=O)n2c1 | x | -6.4 | 16.0% | 65.9%[15.4 µM] | x | 1.4
COc1ccc(OCC(=O)Nc2c(C)ccc3nsnc23)cc1 | -0.6% | -12.4 | -4.9% | 7.4% | x | -0.5
COc1ccc(-c2nc(CN3CCC(C(=O)NC4CCCC4)CC3)c(C)o2)cc1OC | -6.8% | -4.5 | 7.3% | 3.2% | x | -0.3
CCOC(=O)c1cc(C#N)c(SCC(=O)Nc2ccc(C(C)=O)cc2)[nH]c1=O | x | 44.0 | -15.5% | -2.5%[15.4 µM] | 12.1 | 0.4
Cc1ccc2[nH]c(=O)c(-c3nc4c(C)cccn4c3NCc3ccco3)cc2c1 | 0.7% | 2.2 | -3.2% | 1.8% | 1.0 | -0.5
CC1(C)Cc2c(c(N3CCOCC3)nc3sc4c(NCCN)ncnc4c23)CO1 | -7.2% | 12.7 | 2.3% | u | x | 0.6
CCn1c(CC(=O)Nc2ccccc2)n[nH]c1=S | -0.4% | -2.3 | 3.4% | -18.0% | 6.5 | -0.2
CC(C)(C)c1ccc(OCCC(=O)Nc2cccc(S(=O)(=O)N3CCOCC3)c2)cc1 | -1.3% | 7.7 | -22.6% | -28.2% | -4.2 | 0.8
New compounds follow
SMILES | ClpP mod | TRPML1 inh | gsp antagonist | gsp agonist | Menin MLL FP FL | TRPML1 agonist
COc1ccc2c(c1)c1c3n2CCN(C)C3=NCC1 | u | 0.2 | 4.2% | 0.0% | 2.5&2.5 | -1.1
COc1cccc(Cc2nc3ccccc3nc2SCC(=O)NCc2ccc(C)cc2)c1 | -0.2% | -15.5 | x | x | x | 2.9
O=C(NN=C1CCCCC1)Nc1ccccc1Cl | 1.1% | 9.1 | -0.8% | 17.9% | x | -0.4
N/C(=N\OC(=O)c1cc(-c2ccccc2)nc2ccccc12)c1ccncc1 | 17.4% | -1.2 | 7.3% | 18.1% | -1.1 | 0.7
CS(=O)(=O)Nc1nc2ccccc2[nH]1 | 0.8% | 0.4 | 0.3% | -1.6% | -10.7 | -0.4
Cc1oc2cc([N+](=O)[O-])c(O)c([N+](=O)[O-])c2c1C(=O)c1ccc(Cl)cc1 | 2.3% | 16.4 | 7.2% | -12.7% | 4.1 | 3.5
